UUG fidelity – modulators of yeast start codon fidelity, primary screen, whole organism, S. cerevisiae, single point, plate reader; activity score, % at 18.7 µM; actives 0.13% (n = 350,000); AID 602363, 2012; S. cerevisiae UUG-firefly luciferase reporter, luminescence/redox ratio;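 active means replicate mean at a twofold rise or more, about +100% in these data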;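 further: firefly luciferase made from a UUG start codon reports start codon fidelity; reporter light over untreated wells divided by growth signal over untreated wells; some hits fall short of that in this replicate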
Env fusion inh – inhibitors of HIV-1 Env-driven cell-cell fusion, primary screen, HeLa-JRFL effector, CEM21 target cells, luciferase. inhibition, % at 12.3 µM. actives 1.1% (n = 360,000). AID 651610, 2012;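 active means mean replicate inhibition score of at least 50 and every replicate individually at or above 50; inconclusive means only one of the two criteria met; inactive means mean below 50 and not all replicates reaching 50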;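 further: 0% = plate neutral controls and 100% = maraviroc near 300 nM; one replicate is shown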
Active calls of the source: *; ? = inconclusive; & = joins results of further samples; [ ] = remark or other dose. This is a subset; the hit share may differ from the screen's.

[1] O=C1O[C@H](c2ccccc2)[C@H](c2ccccc2)N2[C@H]1[C@@H](C(=O)N1CCN(c3ncccn3)CC1)[C@]1(C(=O)Nc3ccc(C#CC4=CCCCC4)cc31)[C@H]2c1ccc(OCCO)cc1
[2] COc1ccc(C#Cc2cnc3c(c2)C(=O)N([C@H](C)CO)C[C@@H](C)[C@@H](CN(C)C(=O)c2ccccc2F)O3)cc1
[3] Cc1noc(C)c1NC(=O)Nc1ccc2c(c1)C(=O)N([C@H](C)CO)C[C@H](C)[C@H](CN(C)S(=O)(=O)c1ccc(F)cc1)OCCCC[C@@H](C)O2
[4] C[C@@H]1CN([C@H](C)CO)C(=O)c2cccc(NS(=O)(=O)c3ccccc3)c2O[C@@H]1CN(C)Cc1ccncc1
[5] CNC[C@H]1Oc2ccc(NS(=O)(=O)c3c(C)noc3C)cc2CC(=O)N([C@@H](C)CO)C[C@@H]1C
Assay by compound	1	2	3	4	5
UUG fidelity	-13	23	-18	-4	-16
Env fusion inh	-19[16.7 µM]	28[16.7 µM]	-10[16.7 µM]	0[16.7 µM]	-28[16.7 µM]

[6] C[C@@H]1CCCCO[C@@H](CN(C)S(=O)(=O)c2cccs2)[C@H](C)CN([C@@H](C)CO)C(=O)c2cc(NC(=O)CCC(F)(F)F)ccc2O1
[7] C[C@H](CO)N1C[C@H](C)[C@H](CN(C)C(=O)CN(C)C)Oc2cc(C#CC3CC3)ccc2S1(=O)=O
[8] CCC(=O)N(C)C[C@H]1Oc2ncc(C#Cc3cccnc3)cc2C(=O)N([C@H](C)CO)C[C@H]1C
[9] C[C@@H]1CCCCO[C@H](CN(C)C(=O)CCCN(C)C)[C@@H](C)CN([C@H](C)CO)C(=O)c2cc(NS(=O)(=O)c3ccc(F)cc3)ccc2O1
[10] O=C(N[C@H]1CC[C@H](CCNS(=O)(=O)c2ccc(F)cc2)O[C@@H]1CO)c1ccccn1
Assay by compound	6	7	8	9	10
UUG fidelity	39	2	-5	3	-11
Env fusion inh	-30[16.7 µM]	-1[16.7 µM]	15[16.7 µM]	1[16.7 µM]	?

[11] C[C@H](CO)N1C[C@H](C)[C@H](CN(C)Cc2ccc(Cl)c(Cl)c2)Oc2ccc(N(C)C)cc2C1=O
[12] CNC[C@@H]1Oc2ncc(C#CCC3CCCC3)cc2C(=O)N([C@H](C)CO)C[C@H]1C
[13] C[C@H]1CN([C@@H](C)CO)C(=O)c2cc(NS(=O)(=O)c3ccc(Cl)cc3)ccc2O[C@@H]1CN(C)Cc1ccccc1
[14] C[C@H]1CN([C@@H](C)CO)C(=O)c2cc(NC(=O)Nc3ccc4c(c3)OCO4)ccc2O[C@@H]1CN(C)S(=O)(=O)c1ccc(Cl)cc1
[15] C[C@@H]1CN([C@@H](C)CO)C(=O)c2cccc(NC(=O)C3CCCCC3)c2O[C@@H]1CN(C)C
Assay by compound	11	12	13	14	15
UUG fidelity	1	22	-12	-9	-6
Env fusion inh	6[16.7 µM]	11[16.7 µM]	-18[16.7 µM]	5[16.7 µM]	-17[16.7 µM]

[16] C[C@@H]1CN([C@H](C)CO)C(=O)c2cccc(NC(=O)c3nc4ccccc4s3)c2O[C@H]1CN(C)S(C)(=O)=O
[17] O=C(C[C@H]1CC[C@@H](NC(=O)NC2CCCCC2)[C@@H](CO)O1)NCc1ccc(F)cc1
[18] CC(C)CC#Cc1ccc2c(c1)O[C@@H](CN(C)C(=O)NC1CCCC1)[C@@H](C)CN([C@@H](C)CO)S2(=O)=O
[19] Cc1ccc(S(=O)(=O)NCC[C@H]2CC[C@@H](NC(=O)c3cccnc3)[C@H](CO)O2)cc1
[20] C/C=C/c1cnc2c(c1)C(=O)N([C@@H](C)CO)C[C@H](C)[C@@H](CN(C)C(=O)c1ccc3c(c1)OCO3)O2
Assay by compound	16	17	18	19	20
UUG fidelity	6	16	19	-12	2
Env fusion inh	11[16.7 µM]	0[16.7 µM]	16[16.7 µM]	0[16.7 µM]	-11[16.7 µM]

[21] C[C@H]1CN([C@@H](C)CO)C(=O)Cc2cc(NS(=O)(=O)c3ccc(F)cc3)ccc2O[C@H]1CN(C)S(=O)(=O)c1cccs1
[22] COc1ccc(S(=O)(=O)N(C)C[C@H]2OCCCC[C@@H](C)Oc3ccc(NS(C)(=O)=O)cc3C(=O)N([C@@H](C)CO)C[C@@H]2C)cc1
[23] C[C@H](CO)N1C[C@H](C)[C@H](CN(C)S(=O)(=O)c2cn(C)cn2)Oc2ccc(NC(=O)CCC(F)(F)F)cc2CC1=O
[24] C[C@H]1CN([C@@H](C)CO)C(=O)c2cc(-c3ccncc3)cnc2O[C@H]1CN(C)C(=O)c1ccncc1
[25] CO[C@@H]1CN(C)C(=O)c2ccc(NS(C)(=O)=O)cc2OC[C@@H](C)N(CCC(F)(F)F)C[C@H]1C
Assay by compound	21	22	23	24	25
UUG fidelity	13	5	-5	-13	-6
Env fusion inh	12[16.7 µM]	-3[16.7 µM]	-16[16.7 µM]	-15[16.7 µM]	-1[16.7 µM]

Quoted from the listing.
compound 15 in UUG fidelity is listed with -6
compound 13 in Env fusion inh is listed with -18[16.7 µM]
compound 24 in UUG fidelity is listed with -13
compound 6 in UUG fidelity is listed with 39

The list continues.
[26] O=C(C[C@H]1C=C[C@@H](NC(=O)C2CCOCC2)[C@@H](CO)O1)NCC1CCCCC1
[27] COc1ccc(S(=O)(=O)Nc2ccc3c(c2)C(=O)N([C@H](C)CO)C[C@H](C)[C@H](CN(C)Cc2ccc(Cl)c(Cl)c2)OCCCC[C@@H](C)O3)cc1
[28] COc1ccc(S(=O)(=O)Nc2ccc3c(c2)OC[C@@H](C)NC[C@H](C)[C@H](OC)CN(C)C3=O)cc1
[29] C[C@@H]1CCCCO[C@@H](CN(C)C(=O)Nc2ccc3c(c2)OCO3)[C@@H](C)CN([C@H](C)CO)C(=O)c2cc(NS(=O)(=O)c3ccc(F)cc3)ccc2O1
[30] C[C@@H]1CN([C@@H](C)CO)C(=O)c2cccc(NC(=O)C3CC3)c2O[C@H]1CN(C)C(=O)Nc1ccc(C(F)(F)F)cc1
Assay by compound	26	27	28	29	30
UUG fidelity	-5	31	2	-7	1
Env fusion inh	2[16.7 µM]	-10[16.7 µM]	-14[16.7 µM]	16[16.7 µM]	-12[16.7 µM]

[31] CC(=O)N(C)C[C@H]1Oc2cc(C#Cc3ccncc3)ccc2S(=O)(=O)N([C@H](C)CO)C[C@@H]1C
[32] Cc1ccc(S(=O)(=O)Nc2ccc3c(c2)CC(=O)N([C@H](C)CO)C[C@H](C)[C@H](CN(C)S(=O)(=O)c2ccc(F)cc2)O3)cc1
[33] C[C@H](CO)N1C[C@H](C)[C@H](CN(C)C(=O)c2ccccn2)Oc2ncc(-c3ccccc3)cc2C1=O
[34] COc1ccccc1C(=O)Nc1ccc2c(c1)C(=O)N(C)C[C@@H](OC)[C@H](C)CN(CC1CC1)[C@H](C)CO2
[35] CCCNC(=O)N[C@@H]1CC[C@@H](CCn2cc(C3CCCCC3)nn2)O[C@H]1CO
Assay by compound	31	32	33	34	35
UUG fidelity	-2	15	11	-11	-10
Env fusion inh	-11[16.7 µM]	110*[16.7 µM]	-8[16.7 µM]	18[16.7 µM]	-17[16.7 µM]

[36] C[C@H]1CN([C@@H](C)CO)C(=O)c2cccc(NC(=O)Nc3ccccc3)c2O[C@H]1CN(C)Cc1ccc(C(=O)Nc2ccccc2N)cc1
[37] COc1ccccc1-c1cn(CC[C@H]2CC[C@@H](NC(=O)NC(C)C)[C@H](CO)O2)nn1
[38] CC(=O)N(C)C[C@@H]1Oc2ncc(C#C[C@H](C)O)cc2C(=O)N([C@H](C)CO)C[C@H]1C
[39] O=C(Cc1ccccc1)N[C@H]1C=C[C@@H](CC(=O)N2CCCCC2)O[C@@H]1CO
[40] O=C(C[C@@H]1CC[C@@H](NC(=O)Nc2ccc3c(c2)OCO3)[C@H](CO)O1)NCc1ccccc1
Assay by compound	36	37	38	39	40
UUG fidelity	-7	-3	-15	-33	-1
Env fusion inh	-3[16.7 µM]	2[16.7 µM]	-14[16.7 µM]	-4[16.7 µM]	2[16.7 µM]

[41] COc1ccc(S(=O)(=O)N(C)C[C@H]2Oc3c(NS(=O)(=O)c4cn(C)cn4)cccc3C(=O)N([C@@H](C)CO)C[C@H]2C)cc1
[42] CC(C)C#Cc1cnc2c(c1)C(=O)N([C@@H](C)CO)C[C@H](C)[C@@H](CN(C)C(=O)CCN1CCCCC1)O2
[43] CCCC#Cc1cnc2c(c1)C(=O)N([C@H](C)CO)C[C@@H](C)[C@H](CN(C)C(=O)c1ccccc1)O2
[44] C[C@@H]1CN([C@@H](C)CO)C(=O)c2cccc(NC(=O)Nc3ccccc3)c2O[C@H]1CN(C)C(=O)Nc1cccc2ccccc12
[45] COCCNC(=O)C[C@@H]1CC[C@H]2[C@@H](COc3ccc(NC(C)=O)cc3C(=O)N2C)O1
Assay by compound	41	42	43	44	45
UUG fidelity	-24	14	13	-38&-17	-5
Env fusion inh	-20[16.7 µM]	-3[16.7 µM]	-15[16.7 µM]	-35	-16[16.7 µM]

[46] COc1ccccc1-c1cn(CC[C@H]2CC[C@H](NC(=O)NC(C)C)[C@@H](CO)O2)nn1
[47] C[C@@H]1CN([C@@H](C)CO)C(=O)c2cc(NC(=O)c3ccncc3)ccc2O[C@@H](C)CCCCO[C@@H]1CN(C)S(C)(=O)=O
[48] C[C@H]1CCCCO[C@H](CN(C)C(=O)Nc2ccc(F)cc2)[C@@H](C)CN([C@@H](C)CO)C(=O)c2cc(NC(=O)Nc3ccc(F)cc3)ccc2O1
[49] CCCC#Cc1ccc2c(c1)O[C@@H](CN(C)S(C)(=O)=O)[C@@H](C)CN([C@@H](C)CO)S2(=O)=O
[50] C[C@@H]1CN([C@H](C)CO)C(=O)c2cc(NC(=O)NC3CCCCC3)ccc2O[C@@H](C)CCCCO[C@@H]1CN(C)CC1CCCCC1
Assay by compound	46	47	48	49	50
UUG fidelity	-5	9	-9	21	6
Env fusion inh	-5[16.7 µM]	-10[16.7 µM]	62*[16.7 µM]	11[16.7 µM]	1[16.7 µM]

[51] CCCNC(=O)Nc1ccc2c(c1)C(=O)N(C)[C@@H]1CC[C@@H](CC(=O)O)O[C@@H]1CO2
[52] C[C@H](O)C#Cc1ccc2c(c1)O[C@H](CN(C)C(=O)Cc1ccccn1)[C@H](C)CN([C@@H](C)CO)S2(=O)=O
[53] O=C(NC1CCCC1)N[C@H]1C=C[C@H](CC(=O)N2CCOCC2)O[C@H]1CO
[54] C[C@@H]1CN([C@@H](C)CO)C(=O)c2cc(NC(=O)Nc3ccccc3)ccc2O[C@@H]1CN(C)C(=O)Nc1ccc2c(c1)OCO2
[55] COc1ccc(NC(=O)Nc2ccc3c(c2)C(=O)N([C@H](C)CO)C[C@H](C)[C@H](CN(C)C(=O)Nc2ccc(OC)cc2)OCCCC[C@@H](C)O3)cc1
Assay by compound	51	52	53	54	55
UUG fidelity	-6	-1	2	-6	7
Env fusion inh	-8[16.7 µM]	-9[16.7 µM]	5[16.7 µM]	7[16.7 µM]	-17[16.7 µM]

[56] CC(C)C#Cc1ccc2c(c1)O[C@H](CN(C)Cc1ccncc1)[C@H](C)CN([C@H](C)CO)S2(=O)=O
[57] O=C(C[C@H]1C[C@@H]2c3cc(NS(=O)(=O)c4ccc(F)cc4)ccc3O[C@@H]2[C@H](CO)O1)NCc1ccc(-c2ccccc2)cc1
[58] COC(=O)C[C@@H]1CC[C@H]2[C@@H](COC[C@H](O)CN2S(=O)(=O)c2ccc(F)cc2)O1
[59] C[C@H]1CN([C@@H](C)CO)C(=O)c2cc(NS(=O)(=O)c3ccccc3)ccc2O[C@H]1CN(C)Cc1ccc(-c2ccccc2)cc1
[60] C[C@@H]1CN([C@H](C)CO)C(=O)Cc2cc(NC(=O)c3ccncc3)ccc2O[C@H]1CN(C)C(=O)Nc1cccc2ccccc12
Assay by compound	56	57	58	59	60
UUG fidelity	-5	-15	3	1	1
Env fusion inh	-10[16.7 µM]	32[16.7 µM]	1[16.7 µM]	?	7[16.7 µM]

Rewritten with bars between the fields: part of the list above
nr | structure | UUG fidelity | Env fusion inh
29 | C[C@@H]1CCCCO[C@@H](CN(C)C(=O)Nc2ccc3c(c2)OCO3)[C@@H](C)CN([C@H](C)CO)C(=O)c2cc(NS(=O)(=O)c3ccc(F)cc3)ccc2O1 | -7 | 16[16.7 µM]
58 | COC(=O)C[C@@H]1CC[C@H]2[C@@H](COC[C@H](O)CN2S(=O)(=O)c2ccc(F)cc2)O1 | 3 | 1[16.7 µM]
13 | C[C@H]1CN([C@@H](C)CO)C(=O)c2cc(NS(=O)(=O)c3ccc(Cl)cc3)ccc2O[C@@H]1CN(C)Cc1ccccc1 | -12 | -18[16.7 µM]

The results go on.
[61] NC(=O)NCC#Cc1ccc2c(c1)[C@]1(C(=O)N2)[C@H](c2ccccc2OCCO)N2[C@H](c3ccccc3)[C@H](c3ccccc3)OC(=O)[C@H]2[C@@H]1C(=O)O
[62] C[C@@H]1CCCCO[C@H](CN(C)Cc2ccc(C(=O)Nc3ccccc3N)cc2)[C@@H](C)CN([C@H](C)CO)C(=O)c2cc(NS(=O)(=O)c3cccs3)ccc2O1
[63] CO[C@@H]1CN(C)C(=O)c2cc(NC(=O)c3nc4ccccc4s3)ccc2OC[C@@H](C)N(Cc2ccncc2)C[C@@H]1C
[64] C[C@@H]1CN([C@@H](C)CO)C(=O)c2cc(NC(=O)CCC(F)(F)F)ccc2O[C@@H]1CN(C)C(=O)Nc1cccc2ccccc12
[65] C[C@H]1CCCCO[C@H](CN(C)Cc2ccc(Cl)c(Cl)c2)[C@@H](C)CN([C@@H](C)CO)C(=O)c2cc(NC(=O)CCC(F)(F)F)ccc2O1
Assay by compound	61	62	63	64	65
UUG fidelity	5	-11	-10	6	13
Env fusion inh	-18[16.7 µM]	-10[16.7 µM]	28[16.7 µM]	-9[16.7 µM]	79*[16.7 µM]
